Compound activity (PubChem BioAssay)
HPGD inh – HPGD (human) dehydrogenase inhibition. purified HPGD, NADH fluorescence kinetic, PGE2 substrate. Potency, µM, inactives show top-dose activity change, negative = inhibition, usual class: inhibitors. actives 4.3% (n = 150,000). AID 894; active = well fitted inhibition curve with a large enough effect (not every such curve was filed as active); inconclusive = small, poorly fitted or top-dose-only effect, or another doubt; inactive = no such curve, though single readings can be large or run the other way;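 note: top concentration of the series not given in the record; plate controls included wells without enzyme; inactives centre near -10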
Target sequence (P15428 whole entry, looked up): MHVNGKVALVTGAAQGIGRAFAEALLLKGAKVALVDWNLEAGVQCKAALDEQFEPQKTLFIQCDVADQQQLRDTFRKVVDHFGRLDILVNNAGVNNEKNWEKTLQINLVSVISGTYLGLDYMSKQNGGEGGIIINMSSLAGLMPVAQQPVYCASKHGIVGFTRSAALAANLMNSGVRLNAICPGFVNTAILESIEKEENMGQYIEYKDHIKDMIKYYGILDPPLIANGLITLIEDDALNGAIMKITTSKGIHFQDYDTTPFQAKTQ
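NADH formation kinetics: reaction with 30 uM PGE2 and 1 mM NAD+ (final), 20 nM enzyme, Tris-HCl pH 8 with Tween 20, after 15 min compound preincubation at room temperature. Fluorescence change, last versus first of five reads.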
* = called active by the depositor; ? = inconclusive; & = joins results of further samples. % is set by controls: 0 for no effect and ±100 for the full control effect; potency is the fitted concentration of half-maximal effect.

HPGD inh | SMILES
32µM* | COc1cccc(NC(=O)Cc2nnc(SCC(=O)c3ccccc3)n2C)c1
-9% | COC(=O)COc1ccc(S(=O)(=O)NCCC2=CCCCC2)cc1Cl
-9% | Cc1cccc(NC(=S)NC(=O)c2ccco2)n1
-15% | O=C(Nc1ccccc1Oc1ccccc1)c1cc([N+](=O)[O-])ccc1Cl
1% | Cc1ccc(N2CC(C(=O)Nc3cccc(F)c3)CC2=O)cc1 (centres undefined)
1% | CCC(=O)Nc1ccc(-c2csc(NNC(C)=O)n2)cc1
-6% | Cc1ccc(C(=O)Oc2cccc(NC(=O)c3ccccc3)c2)cc1C
-10% | Cn1c(=O)c2c(nc(CN3CCN(C(c4ccccc4)c4ccccc4)CC3)n2CC(N)=O)n(C)c1=O
-21% | CSc1nnc2c(n1)OC=Nc1ccccc1-2
-14% | CCO/C=N/c1c(C#N)c2c(c(=S)n1C)COC(C)(C)C2
-8% | OCC(O)C(O)C(O)C(O)C1NCCS1 (centres undefined)
-12% | O=C(Nc1ccc(F)cc1)C1CCCCC1
-9% | CCCNC(=S)Nc1cccc(C(F)(F)F)c1
-7% | COc1ccccc1NC(=O)c1ccc(N)cc1
1% | Clc1cccc2c1CN(C1=NCCN1)C2
-5% | Cc1cc(NS(=O)(=O)c2ccc(NC(=O)NC3CCCCC3)cc2)no1
-8% | COc1ccccc1NC(=O)N1CCCC1C(=O)NCc1ccc2c(c1)OCO2 (centres undefined)
-8% | Cc1ccc(S(=O)(=O)N2CCCCC2)cc1NC(=O)c1ccc2c(c1)OCO2
-7% | N#Cc1c(NC(=O)CSc2nnc(-c3ccncc3)n2CC2CCCO2)sc2c1CCCC2 (centres undefined)
-9% | CC(=O)NC1C2CN3CCN(C2)CC1(Cc1ccccc1)C3 (centres undefined)
4% | CC(=O)N1C2CCCCC2S[C@H]2CCCCC21 (some centres undefined)
-21% | NC(=O)c1ccsc1NC(=O)COc1ccccc1
-19% | CC(=O)c1cccc(NC(=O)Cc2coc3cc4c(cc23)CCC4)c1
-11% | O=C1c2ccccc2C(=O)N1CCCCN(C(=O)c1cc2ccccc2oc1=O)c1ccc(Cl)cc1
-12% | Cc1nc(NC2=NCN(Cc3cccnc3)CN2)nc2c(C)cccc12
-26% | O=C(O)c1ccccc1Nc1ccc([N+](=O)[O-])cc1
-12% | O=S(c1ccc2ccccc2c1)c1cnns1 (centres undefined)
? | O=C(Cn1cnc2c(nnn2Cc2ccccc2)c1=O)N1CCCc2ccccc21
-8% | O=C(NCc1cccs1)C1CCCN1C(=O)Nc1ccccc1 (centres undefined)
-7% | Cc1nc(Cl)c2c(n1)NC1=C(O2)C(=O)CCC1
-29% | S=C(Nc1ccc2c(c1)OCO2)Nc1ccc2c(c1)OCO2
-11% | O=C(N=C1c2ccccc2CN1c1ccccc1)c1cccc([N+](=O)[O-])c1
-16% | CCc1nc(NCCN2CCOCC2)c2oc3ccccc3c2n1
-3% | Cc1cccc(NC(=O)Cn2c(C)c(C#N)c3ccccc32)c1C
-10% | CC(=O)Oc1cccc(N2C(=O)C3C4C=CC(C4)C3C2=O)c1 (centres undefined)
-1% | CC(C)CCNC(=O)[C@H](CSCc1ccccc1)N1Cc2ccccc2C1=O
0% | CCn1ncc(Br)c1C(=O)Nc1cc(C)ccc1F
-7% | Cc1nc2ccc(S(=O)(=O)NCC(=O)NCc3ccc4c(c3)OCO4)cc2s1
-10%&-5% | NS(=O)(=O)c1ccc(C(=O)O)cc1
-11% | COc1cc(C(=O)N2CCC(c3nc(-c4cccnc4)no3)CC2)cc(OC)c1OC
-8% | O=C(Nc1nc(-c2cccc([N+](=O)[O-])c2)cs1)C(c1ccccc1)c1ccccc1
-10% | COc1ccc(OC)c(NC(=O)Nc2cc(NC(=O)Nc3cc(OC)ccc3OC)c(C)nc2C)c1
-11% | COc1ccccc1CN(C(=O)c1ccco1)C(C(=O)NC1CCCC1)c1ccncc1 (centres undefined)
-3% | COc1cc(SC)ccc1C(=O)OC1CCOC1=O (centres undefined)
-8% | O=C(COC(=O)C1CCCCC1)Nc1ccc(N2CCCCC2)cc1
-14% | O=C(NCC1CCCO1)c1cc(C(=O)C2CC2)c[nH]1 (centres undefined)
3.5µM* | O=C(CSc1n[nH]c(-c2ccccc2)n1)c1ccc(O)c(O)c1
? | c1ccc(-c2nc(N3CCNCC3)nc3ccccc23)cc1
-8% | CCCCC[C@H](O)/C=C/C=C/C=C/[C@@H](O)C/C=C\CCCC(=O)O
-10% | CC(C)N1CC23C=CC(O2)C(C(=O)OCc2ccccc2)C3C1=O (centres undefined)
10µM* | Fc1ccc(-n2c(-c3ccc4c(c3)OCO4)n[nH]c2=S)cc1Cl
-10% | Cc1cccc(NC(=O)NNC(=O)c2nn(C)cc2Br)c1
-21% | Cc1ccc(-c2c3c(=O)n(C)c(=O)n(C)c3cn2Cc2ccccc2)cc1
-3% | Cc1ccc(C(=O)N(c2ccccn2)C(C)c2ccco2)cc1 (centres undefined)
-3% | O=C(Cc1c[nH]c2ccccc12)NNC(=O)c1ccccc1
-2% | C=CCOc1ccccc1/C=C/C(=O)O
-18% | COc1ccccc1N1CCN(CCN(C(=O)C2CCCCC2)c2ccccn2)CC1
-13% | O=C(COc1ccc(S(=O)(=O)NC2CCCCC2)cc1)N1CCN(c2ccc(F)cc2)CC1
10% | CCOC(=O)Cn1nnc(-c2cccc(OC)c2)n1
-15% | CC(C)N(Cc1nc(-c2ccccc2)no1)C(=O)CN1C(=O)c2ccccc2C1=O

Molecules from the list above that contain an aryl thioether with sulfur outside any ring, in the order listed:
HPGD inh | SMILES
32µM* | COc1cccc(NC(=O)Cc2nnc(SCC(=O)c3ccccc3)n2C)c1
-21% | CSc1nnc2c(n1)OC=Nc1ccccc1-2
-7% | N#Cc1c(NC(=O)CSc2nnc(-c3ccncc3)n2CC2CCCO2)sc2c1CCCC2 (centres undefined)
-3% | COc1cc(SC)ccc1C(=O)OC1CCOC1=O (centres undefined)
3.5µM* | O=C(CSc1n[nH]c(-c2ccccc2)n1)c1ccc(O)c(O)c1

Random excerpt: 3 entries already listed
HPGD inh | SMILES
-10% | CC(C)N1CC23C=CC(O2)C(C(=O)OCc2ccccc2)C3C1=O (centres undefined)
-1% | CC(C)CCNC(=O)[C@H](CSCc1ccccc1)N1Cc2ccccc2C1=O
3.5µM* | O=C(CSc1n[nH]c(-c2ccccc2)n1)c1ccc(O)c(O)c1

Another view of 4 compounds above:
> O=C(COC(=O)C1CCCCC1)Nc1ccc(N2CCCCC2)cc1
  HPGD inh: -8%
> c1ccc(-c2nc(N3CCNCC3)nc3ccccc23)cc1
  HPGD inh: ?
> CC(=O)Oc1cccc(N2C(=O)C3C4C=CC(C4)C3C2=O)c1 (centres undefined)
  HPGD inh: -10%
> CCc1nc(NCCN2CCOCC2)c2oc3ccccc3c2n1
  HPGD inh: -16%

Continued:
HPGD inh | SMILES
-13% | COc1cc(NS(=O)(=O)c2ccc(F)cc2)c(OC)cc1NC(C)=O
-25% | O=C(C1=NN(c2ccccc2)C2C(=O)N(c3ccccc3Cl)C(=O)C12)c1ccccc1 (centres undefined)
? | N#CC1=C(N)Oc2c(ccc3cccnc23)C1c1cccnc1 (centres undefined)
-5% | COCc1cc(=O)[nH]c(/N=C(\N)Nc2ccccc2C)n1
-9% | CCC(C)[C@H](NC(=O)Nc1cccc(Br)c1)C(=O)OC (some centres undefined)
-6% | CCc1cccc(CC)c1-n1c(SCC(=O)N2CCc3ccccc3C2)nnc1-c1cccnc1
-11% | CC(C)NC(=O)CN1C(=O)C(=O)c2ccccc21
-7% | Cc1cccc(C)c1NC(=O)C(c1ccccc1)N1CCN(C(=O)c2ccco2)CC1 (centres undefined)
-28% | Cc1ccc(Cn2nnc3c(=O)n(CC(=O)OCc4ccccc4)cnc32)cc1
-4% | O=C(c1cccs1)N1CCN(C(=O)c2ccco2)c2ccccc2C1
-4% | CCOC(OCC)P(=O)(c1ccccc1)c1ccccc1
-14% | CCCCCCS(=O)Cc1ccccc1 (centres undefined)
-24% | O=[N+]([O-])c1ccc(N2CCCC2)cc1NCc1ccccc1
-8% | O=C(c1ccc([N+](=O)[O-])s1)N1CCN(c2cccc(Cl)c2)CC1
-18% | Cc1ccc2nc(NC(=O)COC(=O)c3ccc(Br)o3)sc2c1
-13% | CCCCNS(=O)(=O)c1ccc(OC)cc1
-13% | CCCCC/C=C\C/C=C\C/C=C\CCCCCCC(=O)O
? | Cc1cccc(-n2ncc3c(NCc4cccs4)ncnc32)c1
-11% | Cn1nnnc1P(=O)(c1ccccc1)c1ccccc1
1% | C[C@H](Br)C(=O)c1ccc2cc(Br)c3ccccc3c2c1
-7% | COc1ccc(CNC(=O)c2ccc(-c3ccccc3)cc2)cc1
-19% | COc1ccc(C)cc1-n1nnnc1SCC(=O)NNC(=O)c1ccc([N+](=O)[O-])cc1
-8% | CC(C(=O)O)N1C(=O)C2C3CC(C2C1=O)C1C(c2ccccc2)c2sc(=O)[nH]c2SC31 (centres undefined)
-9% | COc1ccc(S(=O)(=O)Nc2ccc3c(c2)OCO3)cc1C
-9% | CN(CCC#N)C(=O)CSc1nc2scc(-c3ccccc3)c2c(=O)[nH]1
-17% | COc1ccc(-c2n[nH]c(C)c2-c2ccc(OC)c(OC)c2)c(O)c1
-55% | Cc1cc(Nc2ccccc2)nc2cc(O)ccc12
-17% | Nc1c(S(=O)(=O)c2cccc(Cl)c2)c2nc3ccccc3nc2n1/N=C/c1ccc(O)c(O)c1
0% | COc1cc(C(=O)Oc2cccc(C)c2)cc(OC)c1OC
-18% | CCNc1nc(NC(C)C)nc(OCCOC(=O)Nc2ccccc2)n1
16µM* | CCC(=O)Nc1ccc2nc(SCC(=O)N3CCCC3)sc2c1
? | CCOc1ccc(OCc2ccc(C(=O)N3CCCC3)o2)cc1
? | O=C(NCCO)c1ccc2nc(-c3ccco3)c(-c3ccco3)nc2c1
-9% | COC(=O)Cn1ncn2c(cc3oc(C)cc32)c1=O
? | Cc1cc(C)n2cc(CSCc3ccco3)nc2n1
-4% | COc1cccc(N2CCN(Cc3nc(N)nc(Nc4ccccc4)n3)CC2)c1
? | Cc1cn2nc(N)c3ccccc3c2n1
? | Cc1cc(C(=O)N/N=C/c2cc([N+](=O)[O-])cc(C)c2O)n[nH]1
-9% | CCC(CC)C(=O)Nc1c(C)n(C)n(-c2ccccc2)c1=O
-6% | CN(C)Cc1ccccc1-c1cc(-n2ccnc2)ncn1
? | COc1ccccc1C(=O)Nc1ccc(-c2nnc(SCC(=O)O)n2C)cc1
-9% | CNC(=S)NNC(=O)Cc1ccc(OC)c(OC)c1
-9% | Cc1ccc(NC(=O)COC(=O)C2CCC(=O)N2)c(S(=O)(=O)N2CCOCC2)c1 (centres undefined)
-4% | COC(=O)[C@@H]1C(c2ccccc2)(c2ccccc2)[C@@]1(C)C(=O)OC
-30% | Cc1ccc(NC(=O)CC2SC(=O)N(c3ccccc3)C2=O)cc1 (centres undefined)
-9% | CCC(C)(C)C1CCC(=NNC(=O)c2ccc(Br)o2)CC1 (centres undefined)
16µM* | CCCCOC(=O)Nc1ccc(C)c(Cl)c1
-12% | COc1ccc(C(=O)CSc2nnc(-c3ccc(S(=O)(=O)N4CCOCC4)cc3)o2)cc1
-11% | O=C1C(Nc2ccccc2)=C/C(=N/S(=O)(=O)c2cccs2)c2ccccc21
-30% | O=C(CCSCc1ccc(Cl)cc1)NCCC1=CCCCC1
-8% | Cc1ccc(CNC(=O)C2C3C=CC4(CN(Cc5cccnc5)C(=O)C24)O3)cc1 (centres undefined)
5µM* | Cc1ccc(CSc2nc3ccccc3cc2C=O)cc1
-5% | CC(C)(C)C1CCc2c(C(=O)NNC(=O)CCC(=O)O)csc2C1 (centres undefined)
-3% | Cc1ccc(NC(=O)C2CC=CCC2C(=O)N2CCCCC2)cc1 (centres undefined)
-8% | CC(C)(C)NS(=O)(=O)c1ccc(NC(=O)NC2CCCCC2)cc1
-6% | CCC(C(=O)O/N=C(\N)c1ccc(Cl)cc1)c1ccccc1 (centres undefined)
-8% | Cc1ccc2cc3c(NC(=O)CC(C)C)nn(C)c3nc2c1
-17% | CCOC(=O)c1[nH]c2ccc(F)cc2c1NC(=O)Nc1ccccc1OC
-6% | CCc1nc(SCC(=O)Nc2c(C)nn(C)c2C)c2cnn(-c3ccccc3)c2n1
-7% | CC(C)Oc1ccc(C(=O)Nc2cc(=O)n(C)c(=O)n2C)cc1

New compounds follow:
HPGD inh | SMILES
-21% | COc1ccc2c(C)cc(SCn3nnc4ccccc4c3=O)nc2c1
3.5µM* | Cc1cc(C)n(-c2nc3c(c(=O)[nH]c(=O)n3C)n2CC(O)COc2ccc(Cl)cc2Cl)n1 (centres undefined)
-7% | O=C(COC(=O)C1=COCCO1)Nc1ccc(Oc2ccccc2)cc1
-6% | Cc1noc(C)c1-c1nccc(N2CCNCC2)n1
-7% | CCOc1ccccc1NC(=O)c1c(NC(=O)CNCc2ccco2)sc2c1CCC2
? | CCC(=O)N=c1sc2c(C)cc(C)cc2n1CC(=O)OC
-10% | O=c1c(-c2ccccc2)c(O)nc2ccccn12
-1% | O=C1CC(c2cccs2)CC(O)=C1C=NCCN1CCNCC1 (centres undefined)
-9% | Cn1ncc2nc[nH]c(=O)c21
? | Cc1nc(NCc2ccccc2)c2nc(-c3ccccc3)n(CCN(C)C)c2n1
-15% | CCNC(=O)N1c2ccc(OCC)cc2C(C)=CC1(C)C
-5% | Cn1nc(C(F)(F)F)c(C(=O)Nc2ccc(F)cc2F)c1Sc1cccc(C(F)(F)F)c1
-8% | O=C(Nc1ccc(OC(F)(F)F)cc1)C1=NCCN1
-6% | Cc1cc(C)c(O)c(Cc2cccc(Cc3cc(C)cc(C)c3O)c2O)c1

This is a subset; rates above refer to the full screens.
